# Screening results deposited in PubChem BioAssay by National Center for Advancing Translational Sciences (NCATS).
# gsp antagonist: gsp mutant antagonism; gsp-mutant cells, cAMP HTRF, 30 min; control for the full effect not named in the record; Potency, µM (top dose mostly 76.9 µM), without a hit: at the top dose activity change, negative = inhibition, most hits filed as inhibitors; actives 0.4% (n = 340,000); AID 624288; active = falling curve of any shape with a large fitted effect; inconclusive = falling curve, mostly with a smaller effect; inactive = flat or rising curve; cell line not stated here;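 note: intracellular cAMP measured with PDE inhibitor Ro 20-1724 present during compound exposure; potency is the fitted concentration of half-maximal effect; % is set by controls: 0 for no effect and ±100 for the full control effect; nearly all actives have a fitted effect of over 65% in size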
#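 HTRF cAMP measurement after 30 min RT detection following 30 min, 37C compound treatment alongside […] (added as 300 uM solution) in G418-selected cells seeded at 2000/well and grown 16–24 h.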
# gsp agonist: activates gsp, the McCune-Albright syndrome mutation. gsp mutant cells, cAMP HTRF, 30 min; control for the full effect not named in the record. actives 0.13% (n = 340,000). Potency, µM (top dose mostly 76.9 µM), without a hit: at the highest dose activation (cAMP increase), actives largely listed as activators; active = well fitted activation curve with a large enough effect; inconclusive = small, poorly fitted or top-dose-only effect, or another doubt; inactive = no such curve, though single readings can be large or run the other way; cell line not stated here;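 note: phosphodiesterase inhibitor Ro 20-1724 added with compounds to block cAMP breakdown; potency is the fitted concentration of half-maximal effect; nearly all actives have a fitted effect of over 60% in size; about a fifth of the inactives were tested at one dose only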
#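 Cells stably selected in G418 were plated at 2000/well, grown 16-24 hr, then given compounds in DMSO with the PDE inhibitor […] (300 uM solution added) for 30 min at 37C; cAMP was read by HTRF.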
# PINK1 expr mod: PINK1 expression modulation. PINK1 immunofluorescence, high-content cytometry, 24 h. Potency, µM (series often up to 76.6 µM), for the others: at the highest dose activation (PINK1 increase), usual class: activators. actives 0.2% (n = 410,000). AID 624263; active = well fitted activation curve with a large enough effect; inconclusive = small, poorly fitted or top-dose-only effect; inactive = flat fitted curve, though single readings scatter; cell line not stated here;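 note: potency is the fitted concentration of half-maximal effect; % of control where 0% means no effect; nearly all actives have a fitted effect of over 65% in size; a mitochondrial uncoupler was the plate control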
#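 A stable cell line was treated with compounds at 5 concentrations for 24 hours, with CCCP as control. PINK1 levels and mitochondrial localization were measured by immunofluorescence with mitochondrial, cell and nuclear markers after fixation, read by laser-scanning cytometry.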
# ClpP mod: qHTS Assay for Activators of ClpP. ATP-dependent Clp protease proteolytic subunit (Bacillus subtilis (strain 168)), P80244. Potency, µM (doses to about 57.5 µM), inactives show at the highest dose activity change, negative = active. AID 651965, 2013. purified B. subtilis ClpP, FRET peptide cleavage, 20 min. actives 1.9% (n = 340,000); active = well fitted falling curve with a large enough effect; inconclusive = small, poorly fitted or top-dose-only effect; inactive = no such curve, though single readings can be large or run the other way; note: potency is the fitted concentration of half-maximal effect; the source files actives as falling curves though it sought activators and does not explain the sign; nearly all actives have a fitted effect of over 65% in size; many hits overshoot -100%
# Target sequence (P80244 whole entry, looked up): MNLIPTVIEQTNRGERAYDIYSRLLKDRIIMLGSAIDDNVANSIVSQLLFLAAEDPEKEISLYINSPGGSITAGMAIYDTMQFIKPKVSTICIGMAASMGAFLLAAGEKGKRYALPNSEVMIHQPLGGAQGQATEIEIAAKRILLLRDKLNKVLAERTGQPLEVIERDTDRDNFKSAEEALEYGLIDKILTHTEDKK
#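 FRET quenching reversal measured ClpP activation: 10 microg/mL B. subtilis ClpP at pH 8 with the FRET-FV decapeptide, read at 430 nm after 320 nm excitation. The 20-min minus 0-min signal was scaled between DMSO/no-enzyme wells and ADEP (5.8 microM final).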
# Sfp PPTase inh: inhibitors of Bacillus subtilis Sfp phosphopantetheinyl transferase; Q9F4F7; Biochemical Sfp PPTase activity, qHTS; Potency, µM, without a hit: max response, negative = inhibition, actives largely listed as inhibitors; actives 3.5% (n = 310,000); AID 1490; active = well fitted inhibition curve with a large enough effect; inconclusive = small, poorly fitted or top-dose-only effect, or another doubt; inactive = no such curve, though single readings can be large or run the other way;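 note: the enzyme is Sfp with the accession as filed and its product quenches rhodamine fluorescence; potency is the fitted concentration of half-maximal effect; 0% = enzyme reaction without inhibitor and -100% = no enzyme wells; top concentration of the series not given in the record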
#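 Sfp 15 nM + cpd, 15 min RT; start w/ rhodamine-CoA 5 uM, BHQ-2-YbbR 12.5 uM (final); 50 mM Hepes pH 7.6, 10 mM MgCl2, 0.01% NP-40, 0.01% BSA; read 525/598 nm at 0 and 30 min.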
# Menin-MLL FL inh: menin-MLL binding inhibition, fluorescein peptide; FP activity change, % at 61.4 µM; 290,000 tested, under 10 active; Fluorescence polarization, fluorescein-MLL peptide displacement from menin; inconclusive = falling polarisation curve, or a change in total fluorescence; inactive = total fluorescence flat and polarisation flat or rising; no compound was filed as active; the % refers to the polarisation; negative = inhibition;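 note: % of control where 0% means no effect; inhibitors lower the polarisation; unlabelled MLL peptide was the positive control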
# D2 ag: human D2 receptor agonism in beta-arrestin assay | P14416 | AID 624465 | activation, % (test concentration not listed) | actives 0.084% (n = 360,000) | DiscoveRx PathHunter D2 beta-arrestin, luminescence, 90 min; 100% = 57 uM dopamine signal; in the data active = activation above about 40%; inconclusive = about 15% to 40%; inactive = below about 15%; note: compound concentration not given in the record; the text of the record calls up to 30% inactive
# Target sequence (P14416 whole entry, looked up): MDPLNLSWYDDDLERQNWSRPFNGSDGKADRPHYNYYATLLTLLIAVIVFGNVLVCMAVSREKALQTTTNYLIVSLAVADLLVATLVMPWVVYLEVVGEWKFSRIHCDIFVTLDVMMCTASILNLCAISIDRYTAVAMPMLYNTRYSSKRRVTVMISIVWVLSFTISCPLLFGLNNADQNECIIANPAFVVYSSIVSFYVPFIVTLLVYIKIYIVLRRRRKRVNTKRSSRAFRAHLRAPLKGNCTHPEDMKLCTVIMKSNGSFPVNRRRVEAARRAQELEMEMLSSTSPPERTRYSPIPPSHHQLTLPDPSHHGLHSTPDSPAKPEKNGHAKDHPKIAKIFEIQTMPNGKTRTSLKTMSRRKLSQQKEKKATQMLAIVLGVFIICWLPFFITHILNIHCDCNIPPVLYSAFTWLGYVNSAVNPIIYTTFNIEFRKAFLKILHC
#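 Agonist mode: compounds alone added to overnight-plated D2 PathHunter cells for 90 min at 37 C, with 57 uM final dopamine (EC100) defining full response. Beta-arrestin recruitment detected by chemiluminescent reagent, read after 1 h at ambient temperature.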
# Starred values were filed as active, the others as inactive; ? = inconclusive; . = not tested or not shown; [ ] = dose if it differs, or a comment.
SMILES,gsp antagonist,gsp agonist,PINK1 expr mod,ClpP mod,Sfp PPTase inh,Menin-MLL FL inh,D2 ag
COc1ccc(C)cc1S(=O)(=O)N1c2ccc(C)cc2C2CN(C)CCC21 (stereo not drawn),11%,-18%[15.4 µM],-1.5%,.,.,.,-4.1
O=C(Cn1c2c(sc1=O)C1c3ccccc3OCC1CS2)Nc1ccc(Cl)c(Cl)c1 (stereo not drawn),-2%,-30%[inhibitor],0.9%,0.3%,8%,6.5,-2.4
CCc1ccccc1NC(=O)N1C2CCCC1CC(NC(=O)C(C)(C)C)C2 (stereo not drawn),4%,-47%[inhibitor],-0.6%,-2.8%,-12%,1.6,0.8
O=C([C@H]1O[C@@H](n2ccc(=O)[nH]c2=O)[C@H](O)[C@@H]1O)N(CCC1=CCCCC1)CC1CC1,.,.,-0.7%,-4.6%,.,.,-1.8
COc1ccccc1OCCCC(=O)Nc1ccc(N2CCOCC2)cc1,1%,-20%,0.6%,3.2%,-6%,-2.2,3.3
Cc1ccnc(N2CCC(C(=O)NCc3ccc(F)cc3)CC2)n1,5%,-3%,-0.5%,-24%,0%,3.0,1.2
COc1cccc(/C=C2/Sc3ccc(C(=O)NCCCN4CCCC4)cc3NC2=O)c1,9%,-7%,-1.3%,2.6%,-20%,-0.1,-3.3
C=C[C@H](CC(C)C)N(Cc1ccccc1)S(=O)(=O)N(Cc1ccc(OC)cc1)[C@H](C=C)CC(C)C,8%,.,4.1%,0.4%,.,.,-3.9
CN(C)CC#Cc1cccc(-c2nc(C(=O)O)cc3c2[C@@H](CCO)N(S(=O)C(C)(C)C)C3)c1 (stereo partly drawn),.,.,-0.9%,-6.8%,.,.,-4.4
O=c1c2cc(O)c(O)cc2oc2cc(O)c(C3OC(CO)C(O)C(O)C3O)c(O)c12 (stereo not drawn),-8%,.,0.9%,-0.7%,-61%,2.8,-8.9
CC(=O)NCCNC(=O)Cn1nnc(-c2ccccc2)c1COc1ccc2ccccc2c1,.,.,3.5%,-0.8%,.,.,-2.2
CC(C)(C)CC(=O)NC(=S)NCc1ccco1,10%,-7%,0.5%,0.7%,16%,-3.8,2.2
COCCCn1[nH]c2c3c(ccc2c1=O)C(=O)c1ccccc1C3=O,-21%,7%,-1.0%,0.3%,-18%,-0.6,-2.4
c1cncc(-c2noc(-c3cccc4ccccc34)n2)c1,-11%,-59%[inhibitor],-2.1%[38.3 µM],35µM*,?,2.6,-0.7
COc1ccc(-c2cc(-c3c(O)c(OC)c4occc4c3OC)[nH]n2)cc1,?,-4%,0.6%[38.3 µM],0.1%,?,-1.6,-2.0
O=C(N=C1SC2CS(=O)(=O)CC2N1Cc1ccccc1)c1ccccc1 (stereo not drawn),.,-13%,1.2%,-1.3%,.,.,-4.1
O=C(NC1CCC(O)CC1)c1ccccc1OCc1ccc(F)cc1 (stereo not drawn),2%,-5%,1.7%,0.5%,16%,.,-2.5
Cn1nc(C(=O)Nc2ccccc2Cl)cc1C(=O)Nc1ccccc1Cl,13%,10%,3.6%,?,.,.,3.8
Cc1nc(C(=O)Nc2ccccc2)sc1C1(C)CC(c2cccc([N+](=O)[O-])c2)=NO1 (stereo not drawn),0%,.,0.8%,-2.7%,15%,0.4,2.8
COCCC(=O)Nc1c(-c2ccccc2)c2cc(Br)ccc2[nH]c1=O,-4%,-27%,1.1%,-4.2%,11%,0.8,-0.7
CCc1nc(C)ccc1OCC(=O)N(CC)CC,1%,-32%,.,-0.1%,-29%,0.0,-0.5
CCc1cccc(C)c1N(C(=O)Cn1c(COC)nc2ccccc21)C(C)COC (stereo not drawn),-11%,-16%,-0.6%,-5.4%,3%,2.0,1.9
Cc1ccc2c(c1)c1nnc(SCC(=O)N3CCN(c4ccc(F)cc4)CC3)nc1n2CC(=O)O,-8%,11%[15.4 µM],-0.8%,1.2%,71µM*,6.6,-5.6
CC(=O)Oc1ccc(C2=NN(c3ccccc3)C(c3ccccc3)C2)cc1 (stereo not drawn),-1%,?,27%,4.1%,4%,-1.0,2.3
COc1ccccc1-n1cnnc1SCC(=O)Nc1ccccc1,5%,-15%,-1.1%,.,4%,-3.5,-2.5
O=C(Nc1ccc(N2C(=O)C3C4C=CC(C4)C3C2=O)cc1)Nc1nnc(C(F)(F)F)s1 (stereo not drawn),-9%,19%,3.2%,-1.1%,23%,1.3,-6.6
CN(CC(=O)Nc1ccc(F)cc1)C(=O)CSc1nc2ncc(Cl)cc2[nH]1,9%,-7%[15.4 µM],-0.5%,.,13%,-1.3,-1.0
CCc1nc2c(OCc3ccc(Cl)cc3Cl)cccn2c1N(C)C(=O)C1CC1,.,.,0.9%,-1.9%,.,.,1.0
O=C(Cc1ccccc1)c1ccc(N2CCOCC2)cc1,-2%,-2%,9.9%,-0.6%,.,.,0.0
CC1CCCC(C)N1C(=O)COC(=O)c1ccc(Br)c(S(=O)(=O)N2CCOCC2)c1 (stereo not drawn),-13%,2%,1.1%,.,.,.,3.3
COc1cccc(C(=O)Cn2c(=N)n(C)c3ccccc32)c1,-4%,-38%[inhibitor],-2.4%,-9.4%,-1%,3.6,-5.2
NCCCC[C@H](NC(=O)C1CCNCC1)c1nnc([C@@H](N)Cc2ccc(O)cc2)o1,12%,-18%,-1.7%,-0.4%,-15%,-3.3,-0.6
Cc1ccc(C(=O)NC(=S)N(C)Cc2ccccc2)cc1,-11%,11%,6.8%,0.2%,.,.,-5.5
O=C(Cc1ccccc1)NNC(=O)c1cnccn1,16%,-2%,3.8%,-2.2%,35µM*,-1.2,-2.5
Cc1csc(NC(=O)CSc2[nH]c(=O)ncc2C)n1,12%,-1%[15.4 µM],0.0%,-0.3%,.,.,-4.2
O=C(CN1CCN(c2ccccn2)CC1)Nc1ccc(F)cc1F,4%,1%,2.2%,0.9%,8%,-0.7,11
OCCCNC(=S)Nc1ccc(Br)cc1Cl,-17%,-22%[15.4 µM],1.7%,-0.3%,7%,5.2,0.7
CC(C)=CCN1CCN(Cc2cc3ccccc3[nH]2)CC1CCO (stereo not drawn),4%,-21%,-0.1%,-5.2%,12%,0.0,-4.6
CC(=O)Nc1ccc(NC(=O)C2CC(=O)N(c3cccc(C)c3C)C2)cc1 (stereo not drawn),5%,4%,-1.3%,1.3%,17%,-1.1,-3.8
O=C1c2cccnc2C(=O)N1Cc1ccc(S(=O)(=O)NCc2ccco2)cc1,8%,?,-0.5%,-0.8%,-1%,-1.4,3.2
NC1=NC(c2ccccc2C(F)(F)F)N(c2ccc(F)c(Cl)c2)C(N)=N1 (stereo not drawn),18%,?,2.6%,-0.5%,-2%,0.3,2.5
COc1cccc(S(=O)(=O)Nc2ccc(C(=O)NCc3ccco3)cc2)c1,15%,19%,20%[38.3 µM],-0.8%,-2%,-0.5,-2.8
CCc1c(C)nc2ncnn2c1NCCc1ccccc1,?,-6%,-2.4%,-1.1%,22%,1.8,-1.6
O=C(Cc1ccccc1)NCCS(=O)(=O)N1CCN(c2ccccc2)CC1,-4%,-60%[inhibitor],0.9%,-1.2%,.,.,-3.0
COc1ccc(CC2c3cc(OC)c(OC)cc3CC[N+]2(C)CCC(=O)OCCCCCOC(=O)CC[N+]2(C)CCc3cc(OC)c(OC)cc3C2Cc2ccc(OC)c(OC)c2)cc1OC (stereo not drawn),-1%,.,7.7%,0.8%,.,.,0.6

# Laid out differently: 3 of the compounds above.
# Values in the order – gsp antagonist | gsp agonist | PINK1 expr mod | ClpP mod | Sfp PPTase inh | Menin-MLL FL inh | D2 ag
> NC1=NC(c2ccccc2C(F)(F)F)N(c2ccc(F)c(Cl)c2)C(N)=N1 (stereo not drawn)
→ 18% | ? | 2.6% | -0.5% | -2% | 0.3 | 2.5
> COc1cccc(S(=O)(=O)Nc2ccc(C(=O)NCc3ccco3)cc2)c1
→ 15% | 19% | 20%[38.3 µM] | -0.8% | -2% | -0.5 | -2.8
> CCc1c(C)nc2ncnn2c1NCCc1ccccc1
→ ? | -6% | -2.4% | -1.1% | 22% | 1.8 | -1.6

# Carrying on:
SMILES,gsp antagonist,gsp agonist,PINK1 expr mod,ClpP mod,Sfp PPTase inh,Menin-MLL FL inh,D2 ag
O=C(N/N=C1\CCCc2ccccc21)c1cccc(Br)c1,-16%,-14%,0.4%,1.4%,4%,0.0,-3.8
Cc1cccc(C)c1NC(=O)CNC(=O)CCCN1C(=O)c2cccc3cccc(c23)C1=O,-17%,20%,2.4%,4.7%,.,.,-4.4
FC(F)Sc1ccc(NC(=S)NC(c2ccccc2)c2ccccc2)cc1,-9%,-19%,?,-2.4%,27%,-0.9,?
CSCCC(=O)Nc1nc(-c2ccccn2)cs1,4%,-10%[15.4 µM],1.5%,-1.6%,-68%,-1.7,-4.4
COc1ccc(CNS(=O)(=O)NCc2ccc(OC)c(OC)c2)cc1,1%,1%,3.0%,.,-17%,0.3,-1.6
NC(=O)c1ccc(SCC(=O)OCC(=O)N2CCCC2=O)c([N+](=O)[O-])c1,-3%,2%,2.1%,-30%,.,.,0.2
Cc1c2ccccc2nc2c(F)c(NCCO)c(F)c(F)c12,-3%,-3%[15.4 µM],-2.7%,-10%,?,?,10
COc1ccc(Cn2c(-c3ccc(OC)c(O)c3)nc3ccccc32)cc1O,-25%,-5%,1.0%,.,4%,-9.2,3.6
COCCCNC(=O)CSc1nc2cc(S(=O)(=O)N3CCCCC3)ccc2o1,6%,-68%[inhibitor],-1.0%,1.9%,.,.,-4.1
Cc1ccccc1Nc1nc(N)nc(COC(=O)c2ccco2)n1,2%,-3%[15.4 µM],2.9%,1.6%,.,.,2.0
Cc1n[nH]c(=O)nc1NC1CCCCC1,7%,?,-0.3%,1.3%,-7%,1.8,-0.9
Cc1cc(NC(=O)CSc2n[nH]c(N)n2)no1,14%,11%[15.4 µM],0.7%,-2.7%,18%,-0.1,-1.9
